# Bioassay records as filed in PubChem.
# EPAC2 ant val = Validation qHTS for antagonist of cAMP-regulated guanine nucleotide exchange factor 4 (EPAC2); 16,000 tested, 1.7% active; AID 1645886, 2021; Potency, µM (highest dose often 112 µM), for the others: at the highest dose activity, negative = inhibition, usual class: inhibitors; EPAC2 Rap1B BODIPY-GDP exchange, fluorescence; Rap guanine nucleotide exchange factor 4 (Homo sapiens), Q8WZA2; active = well fitted inhibition curve with a large enough effect; inconclusive = small, poorly fitted or top-dose-only effect; inactive = no such curve, though single readings can be large or run the other way;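 also: 100% = activation by cAMP agonist control; nearly all actives have a fitted effect of over 40% in size; the record reuses the description of the EPAC1 agonist screen; inactives centre near -10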
# Target sequence (Q8WZA2 whole entry, looked up): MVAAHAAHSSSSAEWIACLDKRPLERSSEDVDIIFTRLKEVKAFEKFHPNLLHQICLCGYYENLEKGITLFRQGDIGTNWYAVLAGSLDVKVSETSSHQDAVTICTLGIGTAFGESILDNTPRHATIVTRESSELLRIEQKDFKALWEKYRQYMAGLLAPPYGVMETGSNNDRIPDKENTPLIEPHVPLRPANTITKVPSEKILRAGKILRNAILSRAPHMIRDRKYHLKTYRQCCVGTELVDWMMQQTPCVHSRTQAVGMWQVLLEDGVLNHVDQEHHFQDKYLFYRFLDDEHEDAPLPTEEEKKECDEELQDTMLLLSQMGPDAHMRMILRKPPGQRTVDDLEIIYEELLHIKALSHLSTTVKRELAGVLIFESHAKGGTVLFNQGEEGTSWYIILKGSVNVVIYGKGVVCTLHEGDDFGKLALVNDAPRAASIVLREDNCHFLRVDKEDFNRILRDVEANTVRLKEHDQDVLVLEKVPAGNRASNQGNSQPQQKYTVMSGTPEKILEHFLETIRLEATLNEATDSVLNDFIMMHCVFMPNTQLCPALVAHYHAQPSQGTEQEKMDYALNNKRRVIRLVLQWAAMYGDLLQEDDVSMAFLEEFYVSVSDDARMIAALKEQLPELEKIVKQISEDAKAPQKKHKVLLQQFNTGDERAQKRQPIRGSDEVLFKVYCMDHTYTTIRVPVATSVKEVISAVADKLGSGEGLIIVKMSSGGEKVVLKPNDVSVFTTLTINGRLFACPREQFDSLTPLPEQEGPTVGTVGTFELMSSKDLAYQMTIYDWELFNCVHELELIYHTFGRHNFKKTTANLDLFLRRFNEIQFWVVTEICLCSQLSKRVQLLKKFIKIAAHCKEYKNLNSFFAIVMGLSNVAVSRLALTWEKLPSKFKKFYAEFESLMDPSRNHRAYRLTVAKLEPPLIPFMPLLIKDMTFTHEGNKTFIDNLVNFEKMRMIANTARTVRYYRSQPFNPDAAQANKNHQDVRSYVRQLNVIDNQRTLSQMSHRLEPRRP
#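 Normalized against a 6.5 mM cAMP agonist control, compounds were tested on 100 nM EPAC2 exchanging Rap1B-bound BODIPY-GDP (250 nM) for 50 uM GDP. Fluorescence drop (ex 480, em 540 nm) was tracked at room temperature over 30 min at 5-min intervals.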
# Numbers without * were called inactive; ? = inconclusive; & = joins results of further samples; [ ] = another dose, or the depositor's remark. Potency is read from the fitted curve at half-maximal effect. Not all compounds are listed; the hit share may differ from the screen's.
# Start of the data: the first 2 records as a preview:
SMILES,EPAC2 ant val
N#Cc1cccc(-c2nc(NCCN3CCOCC3)c3ccccc3n2)c1,-26%
Cc1cnc(C(=O)N2CCOc3ccc(CN4CCCC(C(=O)c5cccnc5)C4)cc3C2)[nH]1 (stereo not given),-21%

# The listing, repeating the preview:
SMILES,EPAC2 ant val
N#Cc1cccc(-c2nc(NCCN3CCOCC3)c3ccccc3n2)c1,-26%
Cc1cnc(C(=O)N2CCOc3ccc(CN4CCCC(C(=O)c5cccnc5)C4)cc3C2)[nH]1 (stereo not given),-21%
COc1cc(C)c(C(=O)Oc2cc(C)c(C(=O)O)c(O)c2C)c(OC)c1C,50µM*
Cc1cc(/C=C/c2ccc3cc(N(C)C)ccc3[n+]2C)c(C)n1-c1ccccc1,-24%
CC(=O)Nc1ccccc1-c1nc(CNC(=O)c2cccc(F)c2)c(C)o1,-12%
CN(C)c1ccnc(-c2cccc(NS(C)(=O)=O)c2)n1,-8%
CCN1CCc2nc(N)oc2CC1,-5%&14%
O=S(=O)(c1ccccc1)N1CCC2(CCN(c3ccc(-c4ccccc4)cc3)CC2)CC1,-20%
CCNc1ncc2nc(C)c(=O)n(Cc3cccc(OC)c3)c2n1,-27%
CC1(C)C(=O)NC2=C1C(=O)C(=O)c1ccccc12,?
CC(C)NC[C@@H](O)COc1cccc2[nH]ccc12,-31%
COCCNc1ncnc2ccc(-c3cccnc3)cc12,-10%
CC(=O)OCC[N+](C)(C)C,-3%&-24%&7%
COCCn1c(=O)c(CCc2ccccc2)nc2cnc(OCc3ccccc3)nc21,1%
C[C@]12C=CC(=O)C=C1CC[C@@H]1[C@@H]2[C@@H](O)C[C@@]2(C)[C@H]1CC[C@]2(O)C(=O)CO,5%
CC(CCC(=O)O)C1CCC2C3CC[C@H]4CC(O)CC[C@@]4(C)C3CC[C@@]12C (stereo not given in full),-24%
Nc1ccc(S(=O)(=O)NC(=O)c2ccccc2)cc1,-15%[56.6 µM]
FC(F)(F)c1ccccc1-c1cncnc1NCCc1cnc[nH]1,-14%
Cc1ccccc1-c1nccc(-n2ccnc2)n1,-14%
COc1cccc(C2(CC(=O)N3CCC(c4nc5ccccc5o4)CC3)CC(=O)N(C)C2=O)c1 (stereo not given),-6%
COc1ccc(Nc2ncc3nc(-c4cccs4)c(=O)n(Cc4cccc(OC)c4)c3n2)cc1,12%
COc1cc2c(cc1C(F)(F)F)N(C(=O)Nc1cc(F)cc(-c3cccnc3)c1)CC2,-16%
CN(C)c1ccc(-c2ccc3ncnc(NCc4ccccc4)c3c2)cc1,-10%
COc1ccccc1-c1cncnc1NCCNC(C)=O,-19%
CC(C)ON([C@@H](C(=O)NO)C(C)C)S(=O)(=O)c1ccc(-c2ccccc2)cc1,-16%
# Following part:
SMILES,EPAC2 ant val
O=C([C@@H]1C[C@@H](Sc2nc3ccccc3[nH]2)CN1Cc1ccc(C(F)(F)F)cc1)N1CCN(c2ccccc2F)CC1,-31%
OCc1ccccc1O,-31%
Cc1cccc(-c2cc(=O)c3cc(Br)ccc3o2)c1,-26%
Cc1ccccc1CN1CCc2nnc(C(C)NC(=O)C3CCN(C)CC3)n2CC1 (stereo not given),-3%
O=C1CCN(Cc2cccc(C(F)(F)F)c2)CCN1Cc1ccccn1,-11%
Nc1ccc2nc[nH]c2c1,6%
N#CCCn1c(=O)c(CCc2ccccc2)nc2cnc(Oc3cccc(Cl)c3)nc21,-14%
COc1ccc(Oc2ncc3nc(C)c(=O)n(Cc4cccc(OC)c4)c3n2)cc1,?
C/C=C(/CC[C@@H](C)[C@H]1CC[C@H]2C3=CC[C@H]4[C@H](C)[C@@H](O)CC[C@]4(C)[C@H]3CC[C@]12C)C(C)C,20%
O=C(Nc1cccc(F)c1)N1CC2(CCN(C(=O)c3cccc(F)c3)CC2)C1,-24%
NC1(C(=O)O)CCC1,-15%
COCCn1c(=O)c(-c2ccc(OC)cc2)nc2cnc(OCc3ccccc3)nc21,8%
CCCCC[C@H]1CN(CCc2ccccc2)C(=O)[C@@H]1CC(=O)NCc1ccc(OC)cc1,?
CCC(CN)CC(C)CCNCC(O)CNCC(C)CC(CC)CN (stereo not given),15%
COc1ccc(-c2ccc(C(=O)N3CCc4c(cnc(C)c4CNS(=O)(=O)N(C)C)C3)o2)cc1,?
CSCC[C@H](NC(=O)[C@H](Cc1ccc(OS(=O)(=O)O)cc1)NC(=O)[C@@H](N)CC(=O)O)C(=O)NCC(=O)N[C@@H](Cc1c[nH]c2ccccc12)C(=O)N[C@@H](CCSC)C(=O)N[C@@H](CC(=O)O)C(=O)N[C@@H](Cc1ccccc1)C(N)=O,0%
COc1cccc(Cn2c(=O)c(CCc3ccccc3)nc3cnc(N4CCOCC4)nc32)c1,-5%
COc1ccc(C(=O)C[n+]2ccccc2Cl)cc1,-21%
O=C1/C(=C\c2cccs2)CCC/C1=C\c1cccs1,0%
CC(C)C[C@H](NC(=O)[C@H](CCc1ccccc1)NC(=O)CN1CCOCC1)C(=O)N[C@@H](Cc1ccccc1)C(=O)N[C@@H](CC(C)C)C(=O)[C@@]1(C)CO1,0%
O=C(c1ccco1)N1CCC[C@@]2(CCN(Cc3nccs3)C2)C1,-26%
COc1ccccc1C(=O)N[C@@H]1c2ccccc2C2(CCN(C(=O)c3csnn3)CC2)[C@H]1OC,-10%
COc1ccc2[nH]c(S(=O)Cc3ncc(C)c(OC)c3C)nc2n1 (stereo not given),18%
O=c1ccc2ccccc2o1,-12%&-6%
O=C(c1ccco1)N1CCC2(CC1)CCN(c1ccncc1)CC2,-12%
# The list goes on:
SMILES,EPAC2 ant val
COCCNc1ccnc(-c2c(C)noc2C)n1,-7%
O=C(NC1CCCC1)c1cn(C2CCCN(Cc3ccc4c(c3)OCCO4)C2)nn1 (stereo not given),10%
OCC1OC(n2cnc3c(Cl)nc(Cl)nc32)C(O)C1O (stereo not given),-3%
COc1ccc(CN2CC[C@H]3C=CC[C@@H](C(=O)Nc4ccc(Cl)cc4Cl)[C@H]3C2=O)cc1OC,-19%
COc1ccccc1CN1CCC2(CC1)CCN(C(=O)c1ccco1)CC2,-27%
Cc1ccc(O)c([C@H](CCN(C(C)C)C(C)C)c2ccccc2)c1,10%
O=C(NCc1ccccn1)c1cnn(-c2nccc(-c3cccs3)n2)c1C1CC1,?
O=C(c1cc(-c2ccccc2)on1)N1CCOc2ccc(CN3CCN(c4ccccn4)CC3)cc2C1,-2%
COC(=O)C1N[C@@H]([C@@H](NC(=O)COc2ccccc2)C(=O)NCc2ccc(OC)cc2)SC1(C)C (stereo not given in full),-17%
Cc1csc(SCC(=O)N2CCOc3ccc(C(O)C4CCCCC4)cc3C2)n1 (stereo not given),?
CN(Cc1ccco1)c1ncnc2ccc(-c3ccccc3C(F)(F)F)cc12,?
CNC1(C)C2CCC(C2)C1(C)C (stereo not given),7%&-13%
CC(C)[N+]1(C)C2CCC1CC(OC(=O)C(CO)c1ccccc1)C2 (stereo not given),-18%&-7%
NC(=O)C1c2ccccc2CCc2ccccc21,-25%
CCN(CC)CCNC(=O)c1c(C)[nH]c(/C=C2\C(=O)Nc3ccc(F)cc32)c1C,-22%
COc1ccc2[nH]cc(CCNc3ncnc4ccc(-c5cccc(C#N)c5)cc34)c2c1,-23%
Cc1c(C(=O)NCc2ccccc2Cl)sc2ncnc(NCC3CCCO3)c12 (stereo not given),3%
CCN1CCCC1CNC(=O)c1cnn(-c2nccc(-c3cccs3)n2)c1C1CC1 (stereo not given),8%
O=S(=O)(c1cccc2c(I)cccc12)N1CCCNCC1,-27%&-11%
CCS(=O)(=O)N1CCC[C@H]2CN3CCc4cc(OC)ccc4[C@@H]3C[C@@H]21,-18%&-18%
O=C(NCC1(N2CCOCC2)CCCCC1)c1cnn(-c2nccc(-c3cccs3)n2)c1C1CC1,-32%
COc1ccccc1C1CN(CC(=O)N[C@H]2CCCCNC2=O)Cc2ccccc2O1 (stereo not given in full),-20%
COc1cccc(CNC(=O)c2c(OC)cc(=O)n3c2CCN(C(=O)C2CC24CCCCC4)CC3)c1 (stereo not given),8%
COc1ccccc1-c1ccnc(-n2ncc(C(=O)NCc3ccncc3)c2C)n1,-4%
Cc1cccc([C@@H]2CN(C)CCc3c2cc(O)c(O)c3Cl)c1,-14%
# Next section:
SMILES,EPAC2 ant val
CCn1cc(CN2Cc3ccccc3OC(c3ccccc3OC)C2)c(C)n1 (stereo not given),?
N#CCCn1c(=O)c(-c2ccccc2)nc2cnc(Oc3cccc(Cl)c3)nc21,-21%
COc1cc(-c2ccc(Cl)cn2)cc2c1OCCN(S(=O)(=O)C[C@]13CC[C@H](CC1=O)C3(C)C)C2,-29%
Cc1nc2[nH]c(=O)[nH]c(=O)c2[nH]1,0%
COc1ccc(C(C)=O)cc1,-29%
N[C@H](Cc1ccc(Cl)cc1)C(=O)O,-21%
O=C1CC[C@H](O)CCN1[C@H](CSc1ccccc1)Cc1ccccc1,-15%
COc1ccc(-c2nc3cnc(N(C)C)nc3n(-c3ccccc3)c2=O)cc1,30%[activator]
CN1CCN(c2ncnc3ccc(-c4ccccc4C(F)(F)F)cc23)CC1,-28%
Cc1cccc(-c2cnc(C)nc2C2CCCN(C(=O)c3cccc(Cn4cccn4)c3)C2)c1 (stereo not given),-16%
CC(=O)N[C@@H](C)C(=O)NCC1Cc2cc(C)cc(-c3cnccn3)c2O1 (stereo not given in full),-29%
C[C@@](N)(Cc1ccc(O)c(O)c1)C(=O)O,-8%
CN(C)c1ncc2nc(-c3cccs3)c(=O)n(C)c2n1,9%
CCCCCCCCCC[n+]1ccc(/C=C/c2c(C)[nH]c3ccccc23)cc1,371%[activator]
CC1(C)C2(Cl)C(Cl)C(Cl)C(Cl)(C(Cl)Cl)C1(Cl)C2Cl (stereo not given),-10%
O=S(=O)(O)CCS,-8%&-7%
Cc1ccc2c(c1)CN(CCNC(=O)c1c(-c3ccccc3)noc1C)CC(C)O2 (stereo not given),?
Cc1cccnc1-c1cccc2c1OC(CNC(=O)C1CCCc3c1[nH]c1ccccc31)C2 (stereo not given),-34%
COc1ccccc1CN1CCC2(CC1)c1ccccc1[C@@H](NC(=O)c1ccco1)[C@@H]2OC,-28%
O=C(O)c1cc(=O)c2c(Cl)cc(Cl)cc2[nH]1,-12%&0%&-15%&-23%
CC(=O)SC[C@@H](C)C(=O)N1CCC[C@H]1C(=O)N[C@@H](Cc1ccccc1)C(=O)O,-14%
C=C[C@@H]1c2cc(C)ccc2N(S(=O)(=O)c2ccc(C)cc2)[C@H](c2ccccc2)C1(C#N)S(=O)(=O)c1ccccc1 (stereo not given in full),-27%
COc1ccc(NC(=O)N2CCCC3(CCNCC3)C2)cc1,-22%
COc1ccccc1-c1ccnc(-n2ncc(C(=O)NCCc3cccnc3)c2C)n1,-26%
c1ncc(-c2ccoc2)c(NC2CC2)n1,-3%
# The listing continues:
SMILES,EPAC2 ant val
CCCCCCCCCC(=O)OCC(CO)OC(=O)CCCCCCCCC (stereo not given),-14%[11.4 µM]
OCCN(CCO)c1ccc(/C=C/c2ccnc3ccccc23)cc1,-22%
Cc1ccccc1-c1cc(NCc2ccccc2)ncn1,-18%
CCCCCN=c1ccn(Cc2ccccc2)c2ccccc12,-8%
CC(C)(O)C#Cc1ccc(CN2CCc3nnc(CNC(=O)c4cccc(F)c4)n3CC2)cc1,-7%
CN(C)c1ccc(/C=C/c2ccnc3c(-c4ccccc4)cccc23)cc1,-16%
COc1cc(C(=O)NC2CCCNC2)cc(OC)c1OC (stereo not given),-18%
CC(=O)[C@H]1CC[C@H]2[C@@H]3CC=C4C[C@@H](O)CC[C@]4(C)[C@H]3CC[C@]12C,-23%
COc1ccccc1C1CN(Cc2ccccc2O)Cc2ccccc2O1 (stereo not given),-26%
Cc1oc(-c2ccccc2NC(=O)C2CCC2)nc1CNC(=O)c1ccc2ccccc2c1,?
CC(C)NC[C@@H](O)c1ccc(O)c(O)c1,19%
O=C(Oc1ccccc1)N1CCC2(CCCN(c3cccc(-c4ccccc4)c3)C2)CC1,-19%
COCCn1c(=O)c(-c2ccc(OC)cc2)nc2cnc(Nc3ccccc3)nc21,-18%
CC(C)=CCC/C(C)=C/COc1c2occc2cc2ccc(=O)oc12,?
COc1cccc(-c2nccc(NCCc3c[nH]c4ccc(OC)cc34)n2)c1,-40%
COc1ccc(C(=O)N2CCC[C@@]3(CCN(Cc4ccccc4OC)C3)C2)cc1,-16%
COc1ccccc1-c1ccc2ncnc(NCCNC(C)=O)c2c1,-11%
COc1ccccc1CNc1ccnc(-c2ccc3c(c2)OCO3)n1,?
CC1=CCC2CC1C2(C)C (stereo not given),5%
Cc1c(C(=O)N(C)Cc2cccc3ncccc23)cnn1-c1nccc(-c2ccccc2F)n1,-20%
CN(C)Cc1ccccc1-c1ccc2ncnc(NCc3cccs3)c2c1,-14%
COc1cc(C)c(CN2C[C@H](Sc3nc4ccccc4[nH]3)C[C@H]2C(=O)N(C)C)cc1C,-19%
CC(=O)N1CCC2(CCN(Cc3ccncc3)CC2)CC1,-25%
Cc1ccccc1-c1nc(NCc2cccs2)c2ccccc2n1,?
C#C[C@]1(O)CC[C@H]2[C@@H]3CCc4cc(O)ccc4[C@H]3CC[C@@]21C,-20%

# Single entries from the list.
# CC(C)NC[C@@H](O)c1ccc(O)c(O)c1 in EPAC2 ant val shows 19%
# Cc1c(C(=O)N(C)Cc2cccc3ncccc23)cnn1-c1nccc(-c2ccccc2F)n1 in EPAC2 ant val shows -20%
# C#C[C@]1(O)CC[C@H]2[C@@H]3CCc4cc(O)ccc4[C@H]3CC[C@@]21C in EPAC2 ant val shows -20%
# O=C(Oc1ccccc1)N1CCC2(CCCN(c3cccc(-c4ccccc4)c3)C2)CC1 in EPAC2 ant val shows -19%
# COc1ccccc1-c1ccc2ncnc(NCCNC(C)=O)c2c1 in EPAC2 ant val shows -11%
